NPYLR7 agonist – mosquito NPYLR7 agonism; HEK293T NPYLR7/Galpha15, GCaMP6s calcium fluorescence; activation, % at 10 µM; 270,000 tested, 0.15% active; AID 1259423; in the data active = activation above about 40%;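 also: 0% = vehicle and 100% = reference agonist at the receptor; some compounds past the cut are filed as inactive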
NPYLR7 agonist max-min – also measured in NPYLR7 agonist; calls as there; activation, %; measured here: Max-Min RFU normalised activation; some inactives read as strong as hits;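 span of the calcium signal over five minutes; 0% = vehicle and 100% = native peptide agonist; compound fluorescence can raise it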
* hit, by the source's call. Not all compounds are listed, so the mix of outcomes need not match the whole.

Below each compound – NPYLR7 agonist | NPYLR7 agonist max-min
> Cc1cc(C)c(S(=O)(=O)N2CCC(c3cn(Cc4cccc(F)c4)c4ccccc34)CC2)c(C)c1
  31 | 21
> Cc1nc(Cl)cc(N2CCC(Sc3ccccn3)CC2)n1
  9 | 8
> CC1(C)CC(=O)C2C(=Nc3ccccc3NC2c2cccs2)C1 (stereo unspecified)
  17 | 10
> CCCCCCc1ccc(C(=O)N2CCCN(c3nc(Cc4ccc(C)cc4)nc4onc(-c5cccnc5)c34)CC2)cc1
  20 | 14
> CC(=O)N1CCN(c2oc(-c3ccc(COc4ccc(C)cc4)o3)nc2C#N)CC1
  0 | 30
> CC(C)CN(CC(=O)N(Cc1ccc(F)cc1)Cc1ccco1)Cc1ccc([N+](=O)[O-])cc1
  15 | 18
> COc1ccc(NC(=O)CSc2nnc(C(C)C)c3cnn(-c4ccccc4)c23)c(OC)c1
  -7 | -14
> N#CCCCCS(=O)(=O)Nc1ccc(N2CCCC2)c(F)c1
  8 | 6
> CC(=NNc1nc(C)cc(C)n1)c1ccc2c(c1)Nc1ccccc1S2
  4 | 5
> CNC(=S)N1CCc2ccccc21
  -10 | -3
> CC(=O)Cn1c(=O)c2c(nc3n(-c4ccc(C)cc4C)c(C)c(C)n23)n(C)c1=O
  7 | 9
> O=C(c1cccc(F)c1)N(Cc1cccc(Cl)c1)CC1CC(c2ccc3c(c2)OCO3)=NO1 (stereo unspecified)
  3 | 9
> CCCCc1cc2c(=O)c(-c3cc4ccccc4o3)coc2cc1O
  8 | 7
> COc1ccc(N2C(=O)CSC23CCN(C(=O)C(C)(C)C)CC3)cc1
  0 | -2
> CC(=O)Nc1cccc(C(C)NC(=O)c2ccc(C)c(F)c2)c1 (stereo unspecified)
  4 | 2
> COc1cc(N2CC[C@@H](c3ccc4ccccc4c3)[C@H](O)C2)nc(N)n1
  2 | -1
> CCCc1cc(=O)[nH]c(-n2nc(C)cc2NC(=O)C23CC4CC(CC(C4)C2)C3)n1
  6 | 1
> Cc1c(CN(C)C2CCCc3ccccc32)c(=O)n(-c2ccccc2)n1C (stereo unspecified)
  24 | 8
> Cc1ccc(CSc2nc3c(cnn3CCO)c(=O)[nH]2)cc1
  5 | 4
> Cc1c(Br)c([N+](=O)[O-])nn1CC(=O)NN(C)c1cnc2ccccc2n1
  -5 | -9
> CC(=O)c1ccc(C(=O)N(CCc2ccccc2)CC2CCCN(C)C2)s1 (stereo unspecified)
  2 | 0
> O=C(c1n[nH]c(C2CC2)c1Br)N(C1CCCCC1)C1CC1
  9 | 9
> CCN(CC)S(=O)(=O)c1ccc(N2CCN(Cc3ccccc3C)CC2)nc1
  6 | 4
> COc1cc(C=NNC(=O)COc2cc(C)ccc2C(C)C)cc(OC)c1OC
  2 | -6
> Cc1nc(SCc2cccc(C(=O)N3CCOCC3)c2)nc(N2CCOCC2)c1C
  -4 | 0
> CCCCC(=O)Nc1c(-c2ccccc2OC)nc2cc(C)ccn12
  -10 | -4
> C=CCn1c(=NC(=O)c2ccc(C(C)=O)cc2)sc2cccc(C)c21
  -1 | -2
> Cc1nn(-c2ccccc2)c2[nH]cc(C(=O)NCc3ccncc3)c(=O)c12
  0 | 23
> CCOC(=O)N1CCN(C2CCCN(C(=O)c3ccc4[nH]c(C)c(C)c4c3)C2)CC1 (stereo unspecified)
  2 | 2
> c1ccc2c(c1)CC(N1CCN(c3cccc4c3OCCO4)CC1)C2
  4 | -27
> Cc1ncc(CC(=O)N2CCCC(CCc3ccccc3F)C2)c(=O)[nH]1 (stereo unspecified)
  0 | 19
> c1ccc(-c2ncn(CC3CNCCO3)c2-c2cc3ccccc3[nH]2)cc1 (stereo unspecified)
  8 | 8
> COc1ccc(NC(=O)N2CCc3ccccc3C2c2ccc(F)cc2)cc1OC (stereo unspecified)
  17 | 5
> CCC(C)N(Cc1csc(COc2c(OC)cccc2OC)n1)C(=O)COC (stereo unspecified)
  20 | 23
> CCN(CC)Cc1csc(N)n1
  3 | 1
> COc1ccc(CCCNc2c(C#N)c(=O)n(C)c(=O)n2C)cc1OC
  3 | -1
> Cc1ccc(F)c2c1CCCN2CC(=O)Nc1cccc(C(=O)N2CCSCC2)c1
  2 | -3
> CC(=N)C(C#N)c1csc(NC(=O)c2cccc3c(=O)c(C)c(-c4ccccc4)oc23)n1 (stereo unspecified)
  13 | 8
> Cc1nnc(SCc2ccc(C(=O)N3CCCC3)cc2)n1-c1ccc(F)cc1
  5 | 15
> Cc1ccc(C)c(NC(=O)CN2CCCC2C(=O)N(C)C)c1 (stereo unspecified)
  -7 | -9
> CC(C)CC(NC(=O)C1Cc2ccccc2C1)c1nnc2n1CCNCC2 (stereo unspecified)
  8 | 4
> COc1ccc(CC(OC)C(O)c2ccccc2)c(OCc2ccccc2)c1 (stereo unspecified)
  11 | 3
> Cc1ccc(S(=O)(=O)CCCC(=O)Nc2nnc(-c3cc(C)n(C)n3)o2)cc1
  -7 | -11
> CCS(=O)(=O)CC(=O)N1CCN(C)CC1C(C)C (stereo unspecified)
  14 | 10
> Nc1ccc(-c2ccc(N)c([N+](=O)[O-])c2)cc1[N+](=O)[O-]
  1 | 1
> Cc1cccc(C)c1NC(=O)CSC1=NS(=O)(=O)c2ccccc2N1
  -4 | -13
> Cc1ccc(N2C(=O)N(CC(=O)N3CCCCCCC3)C(=O)C2C)cc1 (stereo unspecified)
  28 | 21
> Cc1ccc(C)c(CN(Cc2nc(C(=O)NCCc3ccccn3)co2)C(C)c2ccccc2)c1 (stereo unspecified)
  21 | 20
> O=C(c1cc(COc2cccc3cnccc23)on1)N1CCC(c2cccc(Cl)c2)C1 (stereo unspecified)
  5 | 3
> CCOC(=O)C1(CCCc2ccccc2)CCCN(C(=O)c2ccoc2)C1 (stereo unspecified)
  6 | 2
> CN=C1SC(CC(=O)Nc2c(C)cccc2C)C(=O)N1/N=C\c1cccs1 (stereo unspecified)
  8 | 6
> CCN(CC)C(=O)Oc1ccc2c(ccn2Cc2ccccc2Cl)c1NC(=O)c1cccc(OC(C)=O)c1C
  1 | -5
> Cc1ccsc1[C@@H]1CCN(C(=O)c2ccccc2-c2nn[nH]n2)C[C@H]1O
  3 | 2
> C=CCCS(=O)(=O)NC(C)c1ccc(NC(=O)C2CC2)cc1 (stereo unspecified)
  -3 | -4
> Cc1nc(CN2C(=O)C(C)ON=C2c2ccccc2F)cs1 (stereo unspecified)
  -1 | -2
> Cc1cc(C)n(C(C)C(=O)N(C)CC(=O)c2ccc(O)cc2)n1 (stereo unspecified)
  0 | -1
> O=C(C=Cc1ccco1)c1ccc2c(c1)OCO2
  -1 | 19
> CC1CCCN(CCNC(=O)c2n[nH]c3ccccc23)C1 (stereo unspecified)
  0 | -2
> COCCN(Cc1c(C)nn(-c2cccc(F)c2)c1N1CCN(C)CC1)C(=O)c1ccccc1F
  2 | 11
> O=C(NCc1ccc2c(c1)OCO2)c1nn(-c2ccccc2F)c(=O)n(Cc2ccccc2F)c1=O
  -6 | -4

Another view of part of the listing above.
Compound	NPYLR7 agonist	NPYLR7 agonist max-min
CCN(CC)Cc1csc(N)n1	3	1
COc1ccc(CCCNc2c(C#N)c(=O)n(C)c(=O)n2C)cc1OC	3	-1
Cc1ccc(F)c2c1CCCN2CC(=O)Nc1cccc(C(=O)N2CCSCC2)c1	2	-3
CC(=N)C(C#N)c1csc(NC(=O)c2cccc3c(=O)c(C)c(-c4ccccc4)oc23)n1 (stereo unspecified)	13	8
Cc1nnc(SCc2ccc(C(=O)N3CCCC3)cc2)n1-c1ccc(F)cc1	5	15

Continuation.
Below each compound – NPYLR7 agonist | NPYLR7 agonist max-min
> COc1ccc2[nH]c3c(c2c1)CCN(C(=O)c1ccc(C(F)(F)F)c(F)c1)C3C(C)Cc1ccc2c(c1)OCO2 (stereo unspecified)
  16 | 6
> CCOC(=O)c1c(NC(=O)c2ccco2)sc(C(=O)Nc2cccc(OC)c2)c1C
  -7 | -2
> CCCN(CC)C(=O)c1ccc(-c2ccc3c(c2)OCCO3)s1
  3 | 2
> Cc1ccc(C(=O)Nc2ccc(SCc3cccnc3)nn2)cc1
  2 | 2
> COc1cc(NS(=O)(=O)c2ccc(OC)c([N+](=O)[O-])c2)cc(OC)c1
  12 | 10
> CC(=O)Nc1ccc(S(=O)(=O)Oc2ccc(Cl)cc2CN(CC2CCCO2)C(=O)NC(C)(C)C)cc1 (stereo unspecified)
  21 | 19
> C=Cn1cc(C(=O)N(C)C(CC)c2cccnc2)cn1 (stereo unspecified)
  -10 | -12
> Cc1noc(C)c1CN(C)C(=O)c1cccnc1Oc1ccccc1
  9 | 5
> Cc1cc(=O)n2c(-c3cccc(NC(=O)c4c(F)cccc4F)c3)csc2n1
  11 | 4
> Cc1ccsc1CN(Cc1ccc(F)cc1)Cc1nc(C(=O)N2CCN(C)CC2)co1
  2 | 14
> CCn1c(SCc2ccccc2)nc2c(c1=O)SCC2
  -2 | -3
> CCOc1ccc(N(CC(=O)N2CCCCC2)S(C)(=O)=O)cc1
  -3 | -9
> COc1c(Cl)cccc1NC(=O)N1CCC(n2cccc2)CC1
  -32 | -29
> CC(C)OCCNC(=O)CC1C(=O)NCCN1Cc1ccccn1 (stereo unspecified)
  5 | 1
> Cc1ccc(C(=O)N2CCC(=O)N(CCC#N)C[C@H]3COc4ccccc4[C@H]32)cc1
  23 | 25
> CSc1ccc(NC(=O)N2CCc3nc(-c4ccccc4)nc(N4CCOCC4)c3C2)cc1
  -3 | 7
> CCC(C)NCc1c(-c2ccc(C)cc2)noc1N1CCCC1 (stereo unspecified)
  4 | 6
> CN(C)N=CC=C1CCC(=CC=NN(C)C)C1=O
  2 | 0
> Cc1ccc2nc(-c3ccc(C)c(N)c3)oc2c1
  1 | -1
> CCOc1ccccc1NC(=O)N(CCCOC)CC(=O)N(CCc1c[nH]c2ccccc12)Cc1ccc(F)cc1
  15 | 13
> COc1ccc(N=c2sc(C(C)=O)c(C)n2CCCO)cc1
  -7 | -11
> Cc1nc(-c2cn(CCN)nn2)n(-c2ccc3c(c2)CCC3)n1
  -4 | -5
> CN(C1CCN(CC(=O)Nc2ccncc2)CC1)S(C)(=O)=O
  5 | 6
> COc1ccccc1Nc1n[nH]c(=S)n1C(=O)c1ccc(C(C)(C)C)cc1
  4 | 3
> CCS(=O)(=O)Oc1cc(CN(C(=O)C(C)C)C2CC2)ccc1OC
  -2 | 10
> CCn1cc(NC(=O)N2CCN(Cc3ccccc3)CC2)c2ccccc21
  4 | 0
> Cc1cc(C)c2oc(-c3ccc(NC(=O)c4cc(I)ccc4Br)cc3)nc2c1
  7 | -4
> OCc1ccc(-c2nccn2CCSc2cn[nH]n2)o1
  -3 | -6
> O=S(CCCOc1ccc(F)cc1)Cc1ccc(F)cc1Cl (stereo unspecified)
  3 | 3
> O=C1CC(c2cnc(-c3ccccn3)nc2)c2cnn(Cc3ccco3)c2N1 (stereo unspecified)
  -1 | -1

Molecules above that have a tert-butyl group (three):
Below each compound – NPYLR7 agonist | NPYLR7 agonist max-min
> COc1ccc(N2C(=O)CSC23CCN(C(=O)C(C)(C)C)CC3)cc1
  0 | -2
> CC(=O)Nc1ccc(S(=O)(=O)Oc2ccc(Cl)cc2CN(CC2CCCO2)C(=O)NC(C)(C)C)cc1 (stereo unspecified)
  21 | 19
> COc1ccccc1Nc1n[nH]c(=S)n1C(=O)c1ccc(C(C)(C)C)cc1
  4 | 3

(further entries)
Below each compound – NPYLR7 agonist | NPYLR7 agonist max-min
> COc1ccc(C2CCCN2CC(=O)NCc2ccc(C)c(F)c2)cc1 (stereo unspecified)
  -1 | 15
> CC1=CC(=O)CC(C)(C)C1(O)/C=C/C(C)=C/C(=O)O (stereo unspecified)
  2 | 2
> O=C(c1cc(-c2ccccc2)nc2ccccc12)N1CCc2ccccc2C1
  -8 | -12
> Cn1c2ccc(I)cc2c2cc(C(=O)C(F)(F)F)ccc21
  -16 | -18
> C=CCN1C(=O)c2ccccc2C1(O)Cc1ccccc1 (stereo unspecified)
  0 | -2
> O=C(c1cc2n(n1)CCNC2)N(Cc1ccccn1)Cc1ccco1
  10 | 7
> COc1ccc(C2=NN(C(=O)c3ccc(Br)cc3)C(c3ccc(OC)cc3)C2)cc1 (stereo unspecified)
  -3 | -10
> CN(C)CCn1cc(NCc2c(Cl)cccc2Cl)cn1
  7 | 6
> Cc1cc(CNc2c(C#N)c(=O)n(C)c(=O)n2C)ccc1N(C)C
  -5 | -5
> Cn1c(SCC(=O)Nc2cc(C(C)(C)C)no2)nnc1C1CC1
  3 | 10
> O=c1nc(SCCC2OCCO2)nc2ccccn12
  1 | 1
> O=C(Cc1cccs1)Oc1ccccc1NC1=NS(=O)(=O)c2ccccc21
  0 | -3
> C=CCc1cc(C)cc(C)c1OCCOCCN1CCN(C)CC1
  -9 | -17
> C=CCn1c(=NC(=O)c2cc(OC)c(OC)c(OC)c2)sc2cccc(C)c21
  -1 | -3
> O=C(CCc1ccccc1Cl)N1CCC2(CCCN(CCc3ccccc3)C2)C1 (stereo unspecified)
  14 | 2
> CCCCc1ccc(-c2ccc(-n3cncc3C(=O)NC(C)COC)cc2)cc1 (stereo unspecified)
  2 | -1
> Cc1ccc(OCCSc2nc3ccccc3n2CC(=O)O)c(C(C)C)c1
  -18 | -24
> O=C1OCCC1Sc1nnc2c(Cl)cc(Cl)cn12 (stereo unspecified)
  12 | 11
> Cc1cnn(CCNCc2ccc(N3CCCCC3)cc2)c1
  2 | 5
> CCOC(=O)c1[nH]ncc1CN(C)CC1CCN(Cc2ccc(C)o2)CC1
  8 | 4
> O=c1c2cnc3nc(-c4ccccc4)nn3c2ccn1CCc1cnc[nH]1
  -3 | 0
> Cn1cnnc1SCc1cc(=O)c(OC(=O)c2ccc(Cl)cc2)co1
  -1 | -6
